# Screening data (PubChem)
# RGS16-Gao HTS = modulates binding between human RGS16 and Galphao. O15492+P09471. bead-based flow cytometry RGS16-Galphao binding, fluorescence; actives lie on both sides. binding response (% of control), % at 10 µM. 220,000 tested, 0.38% active. AID 1441;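 active = below 25% or above 175%, edge rows of some plates excepted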;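 also: Galphao activated by GDP with aluminum fluoride before binding; 100% = wells without compound and 0% = beads without RGS; some results beyond the cut were filed as inactive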
# Target sequence (O15492 whole entry, looked up): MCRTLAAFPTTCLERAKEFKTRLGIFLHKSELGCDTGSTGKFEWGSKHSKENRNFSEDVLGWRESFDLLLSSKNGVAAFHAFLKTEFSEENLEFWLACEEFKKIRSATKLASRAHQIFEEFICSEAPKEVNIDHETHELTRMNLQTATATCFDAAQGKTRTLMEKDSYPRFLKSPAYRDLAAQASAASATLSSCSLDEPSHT
# Target sequence (P09471 whole entry, looked up): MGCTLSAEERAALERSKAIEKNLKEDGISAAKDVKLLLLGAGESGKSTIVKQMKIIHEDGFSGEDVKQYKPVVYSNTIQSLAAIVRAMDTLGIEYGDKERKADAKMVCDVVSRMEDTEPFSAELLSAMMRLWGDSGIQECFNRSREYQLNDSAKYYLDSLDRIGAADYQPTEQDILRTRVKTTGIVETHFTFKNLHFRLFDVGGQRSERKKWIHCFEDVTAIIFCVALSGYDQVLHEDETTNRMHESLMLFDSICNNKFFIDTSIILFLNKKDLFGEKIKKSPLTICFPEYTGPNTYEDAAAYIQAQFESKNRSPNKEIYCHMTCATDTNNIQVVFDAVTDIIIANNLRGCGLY
# INS promoter inh = TRM-6 insulin promoter activity inhibition | TRM-6 cells (human fetal islet line), insulin promoter-eGFP reporter, imaging; reporter expression induced with tamoxifen | inhibition, % at 2 µM | 130,000 tested, 0.9% active | AID 1273;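 active = inhibition above the mean plus 3 SD, with well images judged a real hit on visual review, cut at about 60% in these data, passing the limit was not always enough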
# PKD1 kinase inh = inhibitors of human PKD1 kinase; Q15139; PKD1 kinase fluorescence polarization assay; inhibition, %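 (about 10 µM by stock and volumes)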; 200,000 tested, 0.056% active; AID 797;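 active = inhibition of 50% or more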;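 also: controls were vehicle for no effect and a reference inhibitor for full effect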
# GALR2 ag = activates the human galanin receptor 2; O43603; GALR2-expressing cells, agonist activation read-out; activation, %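 (tested at 5 µM)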; 140,000 tested, 0.48% active;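 active = above mean plus 3 SD of all compounds, about 5% in these data, not always enough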;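 also: 0% = vehicle buffer wells and 100% = reference agonist at full effect; tested in CHO reporter cells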
# Target sequence (O43603 whole entry, looked up): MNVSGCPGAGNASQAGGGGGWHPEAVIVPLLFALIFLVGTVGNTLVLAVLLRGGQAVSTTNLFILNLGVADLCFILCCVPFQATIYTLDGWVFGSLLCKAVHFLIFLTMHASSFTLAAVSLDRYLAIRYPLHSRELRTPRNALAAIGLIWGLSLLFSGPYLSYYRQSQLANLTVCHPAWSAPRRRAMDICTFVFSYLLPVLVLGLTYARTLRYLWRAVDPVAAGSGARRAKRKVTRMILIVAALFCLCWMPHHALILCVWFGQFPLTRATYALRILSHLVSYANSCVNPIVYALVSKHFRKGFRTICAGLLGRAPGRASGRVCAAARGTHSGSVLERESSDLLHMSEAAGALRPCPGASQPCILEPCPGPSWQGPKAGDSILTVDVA
# HSV replic up = HSV replication enhancement; HSV replication augmentation in cells, fold increase; maximum fold increase; 220,000 tested, 0.005% active; AID 1956;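 active = peak rise of 1.5-fold or more in the series; tested in PC3 cells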;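 also: first round at 10 µM; read as green reporter fluorescence; hits show the peak of a series up to 25 µM; 1 = signal of infected wells without compound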
# INS promoter inh cell count = further read-out of INS promoter inh, marked with its call; normalized cell count, %; measured here: cell count, toxicity; reference of the scale not given here;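 cells exposed to compound for 48 h; stained nuclei by imaging scaled within each plate; lower means fewer cells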
# HSV replic up primary fold = also measured in HSV replic up; calls as there; fold increase; compound at 10 µM; measured here: primary screen fold increase 10 uM; tested in PC3 cells;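 GFP signal in the first replicate; 1 = infected wells without compound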
# * hit, by the source's call; i = inactive; / = not tested or not shown.
# Short keys: A = RGS16-Gao HTS; B = INS promoter inh; C = INS promoter inh cell count; D = PKD1 kinase inh; E = GALR2 ag; F = HSV replic up; G = HSV replic up primary fold
O=C(Nc1cccnc1)C1OCCc2ccccc21 (stereo unspecified)
  A = 96 | B = 56 | C = 152 | D = -1 | E = -1.6 | F = i | G = 0.96
O=C(Nc1cc(S(=O)(=O)N2CCCCC2)ccc1Cl)c1ccccc1NS(=O)(=O)c1ccc(F)cc1
  A = 66 | B = i | C = 51 | D = 21 | E = -0.7 | F = i | G = 0.9
COc1cccc2cc(C(=O)NCCc3c[nH]c4ccccc34)c(=O)oc12
  A = 101 | B = 50 | C = 118 | D = 1 | E = / | F = i | G = 0.99
CCc1ccc(/C=N\NC(=O)c2ccc(Br)o2)s1
  A = 103 | B = -40 | C = 147 | D = 14 | E = -0.3 | F = i | G = 0.84
COc1cc(CNc2nnnn2C)ccc1OCc1ccc(F)cc1Cl
  A = 95 | B = -9 | C = 81 | D = 5 | E = / | F = i | G = 1
CC1=C(C(=O)Nc2ccccc2)C(c2coc3ccccc3c2=O)C2=C(CCCC2=O)N1 (stereo unspecified)
  A = 105 | B = / | C = / | D = -2 | E = -0.5 | F = i | G = 0.93
CCN1CCN(c2ccc(NC(=O)CCc3c(C)nc4c(-c5ccccc5)c(C)nn4c3C)cc2)CC1
  A = 113 | B = / | C = / | D = -6 | E = 1.2 | F = i | G = 0.52
COCCN(C(=O)CCC(=O)Nc1nccs1)C(C(=O)NC(C)(C)C)c1ccc(Cl)cc1 (stereo unspecified)
  A = 105 | B = -23 | C = 132 | D = -5 | E = / | F = i | G = 0.91
CCCCSc1nc2c(cnn2-c2ccc(Cl)cc2)c(=O)[nH]1
  A = 104 | B = 16 | C = 61 | D = -4 | E = -3.3 | F = / | G = /
O=c1cc(CSc2ccc(Cl)cc2)nc2nc[nH]n12
  A = 92 | B = / | C = / | D = -3 | E = -1.3 | F = i | G = 0.86
Cc1nn(-c2ccccc2)c(C)c1C(=O)OC/C(O)=C(\C#N)c1nc2ccccc2[nH]1
  A = 102 | B = / | C = / | D = -6 | E = -1.2 | F = i | G = 1.1
COc1ccccc1CNC(=O)C1CC(=O)N(C2CCCC2)C1 (stereo unspecified)
  A = 100 | B = 34 | C = 108 | D = -9 | E = -1.6 | F = i | G = 0.91
CCc1cccc(C)c1NC(=O)c1ccccc1
  A = 106 | B = / | C = / | D = 0 | E = / | F = i | G = 1
Cc1nc(-c2ccccc2)sc1C(=O)CSc1ccc(Br)cc1
  A = 105 | B = -3 | C = 146 | D = 1 | E = -2.2 | F = i | G = 0.92
Cc1ccc(CN2C(=O)CCC2C(=O)NCCN(CC(C)C)CC(C)C)cc1 (stereo unspecified)
  A = 108 | B = / | C = / | D = -12 | E = -2.8 | F = i | G = 0.96
COc1ccccc1N1CCN(C(=O)c2cn(-c3ccccc3)nc2-c2cccnc2)CC1
  A = 99 | B = / | C = / | D = -1 | E = -2.1 | F = i | G = 0.72
CC(NC(=O)COC(=O)/C=C/c1cccc(C(F)(F)F)c1)c1ccccc1 (stereo unspecified)
  A = 29 | B = 0 | C = 118 | D = 8 | E = -2.4 | F = i | G = 0.98
N/C(Cc1ccc([N+](=O)[O-])cc1)=N\OC(=O)COc1cccc2ccccc12
  A = 102 | B = / | C = / | D = -4 | E = -2.3 | F = i | G = 0.98
Cc1cccc(Cn2cnc3c(NS(C)(=O)=O)c(C)c(C)cc32)c1
  A = 113 | B = / | C = / | D = -8 | E = -0.9 | F = i | G = 0.88
COc1cc2ncnc(NCCc3ccccc3)c2cc1OC
  A = 106 | B = -20 | C = 133 | D = 0 | E = / | F = i | G = 0.8
O=C(CSc1nnc(-c2ccccc2)c(-c2ccccc2)n1)NC1CCS(=O)(=O)C1 (stereo unspecified)
  A = 100 | B = / | C = / | D = 1 | E = / | F = i | G = 1
Cc1nnc(NN2CCOCC2)[nH]c1=O
  A = 100 | B = / | C = / | D = -6 | E = / | F = i | G = 0.98
Cc1cc2ccccc2c(=O)n1CC(=O)N(C)c1ccc(F)cc1
  A = 95 | B = -109 | C = 86 | D = -6 | E = -0.9 | F = i | G = 1
Cc1ccsc1C(=O)Nc1cc(C(C)(C)C)nn1-c1ccccc1
  A = 50 | B = -41 | C = 64 | D = -4 | E = -1.4 | F = i | G = 0.99
N#Cc1nc(-c2cccs2)oc1NCc1ccccc1Cl
  A = 81 | B = / | C = / | D = -10 | E = 0.1 | F = / | G = /
Nc1c(C(=O)Nc2ccc(Cl)c(Cl)c2)sc2nc(-c3cccnc3)ccc12
  A = 27 | B = -26 | C = 78 | D = -7 | E = 2.0 | F = i | G = 0.98
CCCCCSc1nc(O)cc(=O)[nH]1
  A = 99 | B = 50 | C = 164 | D = -2 | E = -1.4 | F = i | G = 1
CCCCOc1cc(C)nc(NCc2ccccc2)n1
  A = -104 | B = / | C = / | D = -11 | E = 0.9 | F = i | G = 0.92
CS(=O)(=O)c1ccccc1-c1nc(-c2cc(C(F)(F)F)cc(C(F)(F)F)c2)no1
  A = 96 | B = / | C = / | D = -6 | E = -1.5 | F = / | G = /
COc1cccc(-n2c(SCC(=O)NC(C)(C)C)nnc2-c2ccoc2C)c1
  A = 87 | B = / | C = / | D = -6 | E = -1.4 | F = i | G = 0.62

# Entries of single compounds, quoted from the list.
# Cc1ccc(CN2C(=O)CCC2C(=O)NCCN(CC(C)C)CC(C)C)cc1 (stereo unspecified) as listed: RGS16-Gao HTS = 108; INS promoter inh = /; INS promoter inh cell count = /; PKD1 kinase inh = -12; GALR2 ag = -2.8; HSV replic up = i; HSV replic up primary fold = 0.96
# N/C(Cc1ccc([N+](=O)[O-])cc1)=N\OC(=O)COc1cccc2ccccc12 as listed: RGS16-Gao HTS = 102; INS promoter inh = /; INS promoter inh cell count = /; PKD1 kinase inh = -4; GALR2 ag = -2.3; HSV replic up = i; HSV replic up primary fold = 0.98
# COc1cccc(-n2c(SCC(=O)NC(C)(C)C)nnc2-c2ccoc2C)c1 as listed: RGS16-Gao HTS = 87; INS promoter inh = /; INS promoter inh cell count = /; PKD1 kinase inh = -6; GALR2 ag = -1.4; HSV replic up = i; HSV replic up primary fold = 0.62

# (more compounds)
# Short keys: A = RGS16-Gao HTS; B = INS promoter inh; C = INS promoter inh cell count; D = PKD1 kinase inh; E = GALR2 ag; F = HSV replic up; G = HSV replic up primary fold
Cc1cccc(C)c1N=C1NN=C(c2ccccc2F)CS1
  A = 99 | B = -18 | C = 115 | D = 2 | E = -0.1 | F = i | G = 0.97
Cc1ccc(N(C(=O)CNC(=O)c2ccco2)C(C(=O)NCC2CCCO2)c2ccccc2)cc1 (stereo unspecified)
  A = 100 | B = 33 | C = 98 | D = 7 | E = -0.2 | F = i | G = 1
O=C(COc1ccc(=O)n(-c2ccccc2)n1)Nc1ccccc1
  A = 102 | B = / | C = / | D = 1 | E = -0.8 | F = i | G = 0.88
COC(=O)C1=C(C(=O)OC)[C@@H]2N(Cc3ccccc3)c3ccccc3[C@@]23C[C@@H](C(=O)OC)N(C(=O)CC(C)C)C3=N1
  A = 100 | B = / | C = / | D = / | E = / | F = i | G = 0.79
CCC(C)[C@H](NC(=O)Nc1ccc(S(N)(=O)=O)cc1)C(=O)O (stereo partly specified)
  A = 103 | B = 7 | C = 135 | D = -19 | E = -1.9 | F = i | G = 0.97
O=C(CCN1C(=O)c2ccccc2S1(=O)=O)NCc1ccco1
  A = 100 | B = -249 | C = 54 | D = -13 | E = 0.2 | F = i | G = 1.1
CC(C)CC(=O)/C=C/n1c(=S)oc2ccccc21
  A = 106 | B = 7 | C = 33 | D = 2 | E = -1.2 | F = i | G = 0.86
C/C(=N/NC(=O)CCc1c(C)n[nH]c1C)c1cccc([N+](=O)[O-])c1
  A = 101 | B = / | C = / | D = / | E = / | F = i | G = 0.95
C/C(=N\NC(=S)Nc1ccc(C)c(C)c1)c1ccc(N2CCOCC2)cc1
  A = 105 | B = / | C = / | D = 9 | E = -0.4 | F = i | G = 0.99
COc1ccc2[nH]c(CN3CCN(CC(C)C)C(CCO)C3)c(C)c2c1 (stereo unspecified)
  A = 100 | B = / | C = / | D = 6 | E = / | F = i | G = 0.9
O=C1NCCCC1C(=O)N1CCN(C(=O)c2ccco2)CC1 (stereo unspecified)
  A = 89 | B = -39 | C = 155 | D = -7 | E = -1.9 | F = i | G = 0.87
N=c1c(C(=O)NCc2ccc(F)cc2)cc2c(=O)n3ccccc3nc2n1CC1CCCO1 (stereo unspecified)
  A = 89 | B = / | C = / | D = 6 | E = 14* | F = i | G = 0.94
COc1ccc(C(C)=O)cc1CN1C(=O)NC2(CCCC2)C1=O
  A = 112 | B = -8 | C = 170 | D = 2 | E = / | F = i | G = 0.94
O=C(CSc1nc2ccccc2c(=O)n1Cc1ccco1)N1CCCCCC1
  A = 102 | B = / | C = / | D = -4 | E = -2.3 | F = i | G = 0.8
Cc1cc(NC(=O)COc2cccc(Oc3ccccc3)c2)no1
  A = 106 | B = 4 | C = 106 | D = 4 | E = -0.5 | F = i | G = 0.63
O=C(C[n+]1ccccc1)N/N=C/c1cccs1
  A = 105 | B = -19 | C = 94 | D = -7 | E = / | F = i | G = 1.1
COc1ccccc1CN(C)CC(=O)NC1CCCc2ccccc21 (stereo unspecified)
  A = 107 | B = / | C = / | D = -6 | E = / | F = i | G = 1.1
Cc1cc(Br)ccc1NC(=O)CNC(=O)CN1C(=O)NC2(CCCCCC2)C1=O
  A = 100 | B = / | C = / | D = -6 | E = -1.9 | F = i | G = 0.86
CCOC(=O)N1CCN(c2c(NCc3ccccc3OC)c(=O)c2=O)CC1
  A = 103 | B = / | C = / | D = -8 | E = -2.2 | F = i | G = 1
CC(=O)c1nc(-c2ccccc2)sc1C
  A = 107 | B = -18 | C = 139 | D = -2 | E = / | F = i | G = 0.89
CCOC(=O)N1CCC(N2C(=O)c3ccccc3C2Nc2cc(C)cc(C)c2)CC1 (stereo unspecified)
  A = 103 | B = / | C = / | D = / | E = / | F = i | G = 0.96
CC(NC(=O)NC1CCCCC1)c1ccccc1 (stereo unspecified)
  A = 108 | B = 47 | C = 96 | D = -8 | E = 0.2 | F = i | G = 0.97
COc1ccc(Br)c(C(=O)Nc2cccc(Cl)c2Cl)c1
  A = 106 | B = -11 | C = 117 | D = -1 | E = -0.5 | F = i | G = 1
CN(CCNC(=O)C1CC(=O)N(c2ccc(F)c(Cl)c2)C1)Cc1ccccc1 (stereo unspecified)
  A = 102 | B = 16 | C = 93 | D = -12 | E = -0.8 | F = i | G = 1.3
O=C(O)CC12CC3CC(C1)CC(n1ncc(NCc4ccccc4Cl)c(Cl)c1=O)(C3)C2
  A = 102 | B = / | C = / | D = / | E = / | F = i | G = 1.1
COc1ccc(C2=NOC(C(=O)Nc3cccnc3)C2)cc1OC (stereo unspecified)
  A = 93 | B = / | C = / | D = / | E = / | F = i | G = 0.91
O=C(CN1C(=O)c2ccccc2S1(=O)=O)NC(Nc1ccccc1F)C(Cl)(Cl)Cl (stereo unspecified)
  A = 107 | B = / | C = / | D = 1 | E = / | F = i | G = 1
O=C(N/N=C/C1CC2C=CC1C2)c1ccccc1O (stereo unspecified)
  A = 96 | B = / | C = / | D = / | E = / | F = i | G = 0.9
Cc1cc(-n2cnnn2)ccc1C(C)C
  A = 99 | B = / | C = / | D = -3 | E = / | F = i | G = 0.94
COC(=O)C1=C(C)OC(N)=C(C#N)C1c1ccccc1 (stereo unspecified)
  A = 108 | B = -44 | C = 52 | D = -16 | E = -1.4 | F = i | G = 1.1
CCOC(=O)C1=C(C)N=c2s/c(=C\c3ccc(OC(C)=O)c(OCC)c3)c(=O)n2C1/C=C/c1ccccc1 (stereo unspecified)
  A = 172 | B = / | C = / | D = 5 | E = -2.1 | F = i | G = 0.84
c1ccc(Oc2cc(-n3cccn3)ncn2)cc1
  A = 91 | B = -9 | C = 115 | D = -1 | E = -0.4 | F = i | G = 0.98
CC(C)c1ccc(NC(=O)C(c2ccccc2)N2CCN(C(=O)c3ccco3)CC2)cc1 (stereo unspecified)
  A = 105 | B = -62 | C = 94 | D = -5 | E = -1.8 | F = i | G = 0.98
CCOc1ccc(NC(=O)N(CCN(C)C)C(C)c2cccnc2)cc1 (stereo unspecified)
  A = 99 | B = / | C = / | D = / | E = / | F = i | G = 1.1
CCCn1c(N)c(C(=O)COC(=O)c2c(C)noc2C)c(=O)n(C)c1=O
  A = 108 | B = / | C = / | D = -4 | E = -1.7 | F = i | G = 0.84
O=C(O)CNC(=O)/C=C/c1ccc(Cl)cc1Cl
  A = 96 | B = / | C = / | D = -4 | E = / | F = i | G = 0.91
O=C(NCCc1ccc(Cl)cc1)C1CCN(S(=O)(=O)c2ccc(-n3cnnn3)cc2)CC1
  A = 101 | B = -40 | C = 84 | D = -13 | E = 0.9 | F = i | G = 0.93
NC(=O)c1nn(-c2ccc(Oc3ccccc3)cc2)c(=O)cc1O
  A = 98 | B = -8 | C = 114 | D = 0 | E = / | F = i | G = 0.88
